Screening data as filed in PubChem.
TRPV1 potentiator – potentiators of human vanilloid receptor 1 (TRPV1); 320,000 tested, 0.02% active; TRPV1-expressing cells, Fluo-8 calcium influx, capsaicin EC20 potentiation; host cell line not named in the record; control for the full effect not named in the record; AID 540277; Q8NER1; potentiation, % at 8.33 µM; active means potentiation above 80%; inconclusive means 30% to 80%; inactive means below 30%; note: 0% is about no effect
Target sequence (Q8NER1 whole entry, looked up): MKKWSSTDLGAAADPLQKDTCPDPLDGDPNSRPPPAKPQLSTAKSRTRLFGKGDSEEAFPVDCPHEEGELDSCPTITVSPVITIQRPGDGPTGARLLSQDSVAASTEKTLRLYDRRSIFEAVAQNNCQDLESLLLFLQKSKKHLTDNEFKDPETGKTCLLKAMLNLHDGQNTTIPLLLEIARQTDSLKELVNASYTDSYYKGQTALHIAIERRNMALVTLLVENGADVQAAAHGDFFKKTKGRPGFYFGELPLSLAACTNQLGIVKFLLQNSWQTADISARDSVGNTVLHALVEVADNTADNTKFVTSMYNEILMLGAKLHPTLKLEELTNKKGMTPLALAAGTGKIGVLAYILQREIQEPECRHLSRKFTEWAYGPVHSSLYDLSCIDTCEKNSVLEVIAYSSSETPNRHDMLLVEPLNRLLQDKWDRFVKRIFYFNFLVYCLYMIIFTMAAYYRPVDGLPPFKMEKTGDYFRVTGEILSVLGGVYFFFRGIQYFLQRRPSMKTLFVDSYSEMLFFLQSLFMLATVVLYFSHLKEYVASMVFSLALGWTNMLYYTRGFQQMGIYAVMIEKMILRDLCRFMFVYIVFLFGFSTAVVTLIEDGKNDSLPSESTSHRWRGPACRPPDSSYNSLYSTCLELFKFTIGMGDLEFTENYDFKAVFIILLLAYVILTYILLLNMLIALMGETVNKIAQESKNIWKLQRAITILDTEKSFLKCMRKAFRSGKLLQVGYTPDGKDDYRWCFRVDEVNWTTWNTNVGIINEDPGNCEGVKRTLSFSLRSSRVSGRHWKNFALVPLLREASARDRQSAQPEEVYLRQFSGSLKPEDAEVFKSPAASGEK
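Fluo-8 calcium influx in TRPV1-expressing cells, kinetic read (ex 480/em 520 nm). Compound added and read 3 min for agonist activity, followed by capsaicin at EC20 final and 2 min further read for enhancement.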
gsp agonist – agonists of gsp mutant (McCune-Albright syndrome); Potency, µM (series often up to 76.9 µM), without a hit: at the highest dose activation (cAMP increase), actives largely listed as activators; 340,000 tested, 0.13% active; AID 624287; gsp mutant cells, cAMP HTRF, 30 min; control for the full effect not named in the record; active = well fitted activation curve with a large enough effect; inconclusive = small, poorly fitted or top-dose-only effect, or another doubt; inactive = no such curve, though single readings can be large or run the other way; cell line not stated here;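 note: phosphodiesterase inhibitor Ro 20-1724 added with compounds to block cAMP breakdown; potency is the fitted concentration of half-maximal effect; nearly all actives have a fitted effect of over 60% in size; about a fifth of the inactives were tested at one dose only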
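Cells in DMEM/10% FBS with G418 were pretreated with compounds in DMSO plus […] (300 uM stock) for 30 min at 37C. cAMP was measured by HTRF (cAMP-d2 plus anti-cAMP antibody-K) after 30 min at room temperature.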
gsp antag – antagonizes gsp, the McCune-Albright syndrome mutation; gsp-mutant cells, cAMP HTRF, 30 min; control for the full effect not named in the record; Potency, µM (series often up to 76.9 µM), for inactives: at the top dose activity change, negative = inhibition, actives largely listed as inhibitors; 340,000 tested, 0.4% active; AID 624288; active = falling curve of any shape with a large fitted effect; inconclusive = falling curve, mostly with a smaller effect; inactive = flat or rising curve; cell line not stated here;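 note: intracellular cAMP measured with PDE inhibitor Ro 20-1724 present during compound exposure; potency is the fitted concentration of half-maximal effect; % is set by controls: 0 for no effect and ±100 for the full control effect; nearly all actives have a fitted effect of over 65% in size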
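Cells, 2000/well, grown 16–24 h in DMEM 10% FBS with 0.5 mg/ml G418, then compounds plus […] (300 uM addition stock), 30 min at 37C. cAMP read by HTRF (cAMP-d2 and anti-cAMP antibody-K in lysis buffer) after 30 min RT.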
Menin-MLL FL inh – inhibitors of human menin-MLL interaction, wild-type MLL peptide; FP activity change, % at 61.4 µM; 290,000 tested, under 10 active; Fluorescence polarization, fluorescein-MLL peptide displacement from menin; inconclusive = falling polarisation curve, or a change in total fluorescence; inactive = total fluorescence flat and polarisation flat or rising; no compound was filed as active; the % refers to the polarisation; negative = inhibition;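 note: % of control where 0% means no effect; inhibitors lower the polarisation; unlabelled MLL peptide was the positive control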
Sfp inh – blocks B. subtilis Sfp PPTase activity; Potency, µM, for the others: max response, negative = inhibition, most hits filed as inhibitors; AID 1490; 310,000 tested, 3.5% active; Biochemical Sfp PPTase activity, qHTS; Q9F4F7; active = well fitted inhibition curve with a large enough effect; inconclusive = small, poorly fitted or top-dose-only effect, or another doubt; inactive = no such curve, though single readings can be large or run the other way;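 note: the enzyme is Sfp with the accession as filed and its product quenches rhodamine fluorescence; potency is the fitted concentration of half-maximal effect; 0% = enzyme reaction without inhibitor and -100% = no enzyme wells; top concentration of the series not given in the record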
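Sfp 15 nM + cpd, 15 min RT; start w/ rhodamine-CoA 5 uM, BHQ-2-YbbR 12.5 uM (final); 50 mM Hepes pH 7.6, 10 mM MgCl2, 0.01% NP-40, 0.01% BSA; read 525/598 nm at 0 and 30 min.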
ClpP mod – qHTS Assay for Activators of ClpP. ATP-dependent Clp protease proteolytic subunit (Bacillus subtilis (strain 168)), P80244. purified B. subtilis ClpP, FRET peptide cleavage, 20 min. Potency, µM (titrated, usually from 57.5 µM), for inactives: at the top dose activity change, negative = active. 340,000 tested, 1.9% active; active = well fitted falling curve with a large enough effect; inconclusive = small, poorly fitted or top-dose-only effect; inactive = no such curve, though single readings can be large or run the other way; note: potency is the fitted concentration of half-maximal effect; the source files actives as falling curves though it sought activators and does not explain the sign; nearly all actives have a fitted effect of over 65% in size; many hits overshoot -100%
Target sequence (P80244 whole entry, looked up): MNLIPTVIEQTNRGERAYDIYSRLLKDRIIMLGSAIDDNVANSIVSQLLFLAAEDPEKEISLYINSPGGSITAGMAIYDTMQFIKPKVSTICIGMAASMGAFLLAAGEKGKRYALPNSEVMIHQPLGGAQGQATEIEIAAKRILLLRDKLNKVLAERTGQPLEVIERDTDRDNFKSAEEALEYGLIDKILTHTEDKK
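FRET quenching reversal measured ClpP activation: 10 microg/mL B. subtilis ClpP at pH 8 with the FRET-FV decapeptide, read at 430 nm after 320 nm excitation. The 20-min minus 0-min signal was scaled between DMSO/no-enzyme wells and ADEP (5.8 microM final).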
D2 potentiator – potentiates the human D2 dopamine receptor allosterically; potentiation, % (concentration not given with the values); P14416; DiscoveRx D2 beta-arrestin cells, luminescence, 90 min; 100% = 57 uM dopamine signal; 360,000 tested, 0.23% active; active = potentiation of 50% or more; inconclusive = 30% to 50%; inactive = 30% or less;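 note: compound concentration not given in the record; tested on top of an EC20 dose of dopamine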
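PathHunter beta-arrestin assay in DiscoveRx D2 cells. Compounds were added with an EC20 of dopamine (50 nM final) for 90 min at 37 deg C. Luminescence was read 1 h after detection reagent, with 57 uM dopamine as the EC100 control.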
* hit, by the source's call; ? = inconclusive; . = no result given; [ ] = dose if it differs, or a comment.

SMILES	Sfp inh	ClpP mod	Menin-MLL FL inh	D2 potentiator	gsp antag	TRPV1 potentiator	gsp agonist
CC1CCCN(c2sc(S(C)(=O)=O)nc2S(=O)(=O)c2ccc(Cl)cc2)C1 (stereo not given)	-5%	-0.3%	.	-8	-22%	-5	29%
CC1(C)c2ccccc2N2CC(=O)N(CC(N)=O)C21C (stereo not given)	1%	-1.8%	?	-6	4%	21	12%
CC(C)c1ccc(S(=O)(=O)N2CCN(C(=O)n3ccnc3)CC2)cc1	.	-2.6%	.	-3	3%	2	37%
Nc1nonc1C(=O)NCCNC(=O)c1ccc(Cl)c(Cl)c1	2%	.	1.0	-7	-3%	-15	?
O=C(NN1CCOCC1)c1ccccc1NS(=O)(=O)c1ccc(F)cc1F	.	-2.0%	.	-11	-1%	.	-3%[15.4 µM]
C=CCCC(=O)N1CCCC(C(=O)c2cccc(OC)c2)C1 (stereo not given)	17%	-1.7%	2.9	-38	-4%	-13	-20%
O=C(Cn1ccc2ccccc2c1=O)NCCC(=O)N1CCN(C2CCCCC2)CC1	8%	-17%	0.2	-10	17%	2	0%
Cc1cnc(NC(=O)CSc2nnc(C)n2N)s1	2%	0.5%	9.6	-2	15%	-20	-59%[inhibitor]
CCN(c1ccccc1)S(=O)(=O)c1cc(C(=O)Nc2cccc(Cl)c2)ccc1F	30%	-14%	33[activator]	8	-20%	4	-10%
CC(NC(=S)Nc1ccc(S(N)(=O)=O)cc1)c1ccc2c(c1)OCO2 (stereo not given)	5%	-0.2%	1.4	-17	5%	4	-13%
Cc1cc(C)n(C(=O)c2nn(C)c(C)c2[N+](=O)[O-])n1	9%	-4.1%	1.8	-6	0%	16	-43%[inhibitor]
Oc1ccc(Cl)cc1/C=N/c1nc2ccccc2[nH]1	-3%	-1.8%	3.4	-8	12%	-8	-6%
O=C1CC(N2CCN(c3ccccc3)CC2)C(=O)N1c1ccc2c(c1)OCO2 (stereo not given)	13%	.	-2.1	3	.	5	-21%[15.4 µM]
O=C(NCC1CCCO1)c1cc2n(n1)C(C(F)(F)F)CC(c1ccc(F)cc1)N2 (stereo not given)	-1%	-2.9%	2.8	-10	7%	0	17%
O=C1NC2(CCCCC2)C(=O)N1CCS(=O)(=O)Oc1ccccc1	16%	-2.3%	5.9	-4	2%	2	1%
CCC1C(=O)CC(c2ccc([N+](=O)[O-])cc2)NC1c1ccc([N+](=O)[O-])cc1 (stereo not given)	-4%	-0.7%	8.8	-8	-8%	-5	-26%[15.4 µM]
Clc1ccc(CSc2nnnn2-c2ccc3c(c2)OCO3)c(Cl)c1	?	3.3%	1.2	-5	-18%	2	?
Cc1cccc(C(=O)Oc2ccc(/C=N/NC(=O)Cc3ccc([N+](=O)[O-])cc3)cc2)c1	18%	-0.5%	3.6	-5	5%	-26	-1%[15.4 µM]
Cc1ccc(C(=O)N2CCN(c3ccc(NC(=S)NC(=O)Cc4ccccc4)cc3)CC2)cc1	0%	-1.8%	-0.7	7	-8%	17	?
COc1ccccc1OCC(=O)N1CCN(C(=O)COc2ccccc2OC)CC1	-15%	.	.	-2	-33%	11	17%[15.4 µM]
Cc1ccc(N(C(=O)c2csnn2)C(C(=O)NC2CCCCC2)c2ccco2)cc1 (stereo not given)	-1%	.	-3.5	-8	-11%	-15	?
Cc1cccc(C)c1OCC(=O)Nc1ccc2c(c1)OCCO2	10%	0.0%	.	-8	-3%	-4	-1%
O=C(COC(=O)Cc1ccc(Br)cc1)Nc1c(F)c(F)c(F)c(F)c1F	7%	.	6.2	-6	12%	-20	6%[15.4 µM]
O=C1CC(N2CCC(O)CC2)C(=O)N1c1ccc(Br)cc1 (stereo not given)	3%	-5.0%	-0.6	0	-1%	-1	-27%
Cn1c(SCc2ccccc2)nnc1-c1c[nH]c2ccccc12	10%	0.4%	-1.8	-8	-1%	7	-1%
NNc1nc2c(-c3ccc(F)cc3)nnn2c2ccccc12	?	.	7.5	25	?	2	-7%[15.4 µM]
CCOC(=O)C1CCCN(C(c2ccccn2)c2c(C)[nH]c3ccccc23)C1 (stereo not given)	45µM*	.	-5.1	-6	9%	-11	28%[15.4 µM]
CCc1ccc(C2C(C(=O)O)c3ccccc3C(=O)N2C)cc1 (stereo not given)	26%	-1.2%	5.8	9	-2%	2	-46%[inhibitor]
CN1C[C@@H]2[C@@H]3C(=O)N(Cc4ccccc4)C(=O)[C@@H]3[C@](Cc3ccccc3)(C1=O)N2C(=O)c1ccc(C(C)(C)C)cc1	.	-0.1%	.	-3	-5%	.	.
CC(=O)c1ccc(NC(=S)NNC(=O)c2ccncc2)cc1	-2%	-4.4%	3.4	-5	3%	?	-38%[inhibitor]
COc1ccc2c(c1)[C@H]1[C@H](CO2)[C@H](c2ccccc2)[C@@]2(C)C(=O)N[C@H](C)C(=O)N12	.	0.3%	.	-7	9%	.	.
O=[N+]([O-])c1ccc(N2CCN(Cc3ccccc3)CC2)c(S(=O)(=O)N2CCOCC2)c1	2%	1.8%	-1.5	-18	5%	-7	-1%
COCCCNS(=O)(=O)c1ccc(C)cc1	11%	.	6.7	-2	12%	-38	22%
CCOc1ccc(NC(=O)n2ncc3c(C)cccc32)cc1	-2%	-7.3%	-1.0	-7	4%	-12	-23%
Cc1cc(=O)n2nc(N3CCCC(C(=O)NC4CCCCC4C)C3)sc2n1 (stereo not given)	3%	-0.4%	3.2	-2	12%	4	28%
COc1ccccc1-n1c(SCC(=O)O)nc2c(sc(=S)n2-c2ccc(C)c(C)c2)c1=O	-4%	-0.6%	-1.5	-10	?	10	1%
Cc1ccc(-n2ncc3c2CC(C)(C)CC3NC(=O)C2CCOCC2)cc1 (stereo not given)	23%	1.0%	.	17	15%	-3	-80%[inhibitor]
COc1ccc(CN2C(=O)CS/C2=N/N=C/c2ccccc2)cc1	-14%	-1.7%	-0.2	-6	-18%	1	-59%[inhibitor]
CCCCOC(=O)CSc1nc2c(c(=O)[nH]c(=O)n2C)n1C/C=C(\C)Cl	-3%	1.4%	2.2	-9	-1%	1	-4%
CCCC(=O)C1=C(N2CCCC2)CC(C)(C)C(C(=O)OC)C1=O (stereo not given)	-5%	.	1.4	-5	-1%	?	-20%
CCC(Oc1ccc(C)cc1)C(=O)Nc1ccc(S(=O)(=O)Nc2nccs2)cc1 (stereo not given)	16%	.	3.6	-6	-12%	?	12%[15.4 µM]
COc1ccccc1Oc1ccnc2cc(Cl)ccc12	-14%	.	0.7	8	-23%	3	12%[15.4 µM]
Cc1nn(Cc2c(Cl)cccc2Cl)c(Cl)c1/C=N/NC(=O)c1cccnc1	3%	.	-0.2	3	-5%	-18	-15%[15.4 µM]
c1ccc(C[C@H]2CN=C(Nc3ccccc3)N2CC2CCCCC2)cc1	.	-3.0%	.	-20	-8%	.	-7%
COc1ccc(C(=O)N/C(=C\c2cccc3ccccc23)C(=O)N2CCN(C)CC2)cc1	.	-0.9%	.	-2	9%	6	-41%[inhibitor]
Cc1ccc2nc(NC(=O)CSCC(=O)OCC(=O)c3ccccc3)sc2c1	-15%	0.7%	8.8	10	4%	-2	-3%
Cc1ccsc1/C=N/NC(=O)Cc1ccc([N+](=O)[O-])cc1	.	.	.	-14	1%	.	4%[15.4 µM]
O=[N+]([O-])c1ccc(NCCCO)c(S(=O)(=O)N2CCOCC2)c1	-11%	-1.6%	7.6	6	-8%	-8	0%[15.4 µM]
O=C(c1cnn2c(C(F)(F)F)cc(-c3ccc4c(c3)OCO4)nc12)N1CCCCC1	17%	-3.0%	-0.6	3	2%	2	16%
COc1ccc(CNc2cccnc2)c(OC)c1OC	.	.	.	-1	1%	.	3%

Other entries follow:
SMILES	Sfp inh	ClpP mod	Menin-MLL FL inh	D2 potentiator	gsp antag	TRPV1 potentiator	gsp agonist
O=C(NCc1ccco1)c1ccc(CS(=O)(=O)Cc2ccc(F)cc2)o1	6%	-0.2%	0.4	8	-17%	-16	-4%
COc1cccc(OCc2cc(C(=O)N(C)C3CCCCC3)no2)c1	.	0.0%	.	1	.	.	18%
Cc1ccc(C)c(NC(=S)N(C)C)c1	10%	.	1.8	-5	9%	.	-9%[15.4 µM]
S=C(NCCC(c1ccccc1)c1ccccc1)Nc1ccc(Cl)cc1	20%	-0.7%	1.7	-2	?	-16	6%
C=CC[C@@H](Cc1ccc(F)cc1)C(=O)OC[C@@H]1CCCN1C(=O)[C@@H](CC=C)CC(=O)N[C@@H](CO)Cc1ccccc1	.	-2.0%	.	-10	-10%	.	.
COc1ccc(-c2noc(CCCC(=O)NC3CCCC3)n2)cc1	-2%	.	.	-2	-25%	4	-1%
Cn1c(=N)c(S(=O)(=O)c2ccc(F)cc2)cc2c(=O)n3ccccc3nc21	16%	-7.3%	-0.4	-15	12%	-5	4%
CCc1ccc(-c2nc(CSCC(=O)NC3CC3)c(C)o2)cc1	19%	.	0.1	-3	0%	-22	-2%[15.4 µM]
CC(=O)N1CCN(Cc2nc3cc(NC(=O)c4cccs4)ccc3n2C)CC1	10%	.	0.4	0	.	27	-4%[15.4 µM]
Cc1noc(C)c1CSCC(=O)N(C)CC(=O)Nc1cccc(F)c1	4%	0.5%	.	7	4%	3	-6%
CCN(CCCNC(=O)CC(C(=O)N1CCc2ccccc21)n1ccnc1)c1ccccc1 (stereo not given)	7%	1.9%	2.3	-13	-23%	10	28%
COc1ccc(C(=O)/C=C/c2cn(CC(O)CN3CCN(C)CC3)c3ccccc23)cc1OC (stereo not given)	3%	.	?	-8	11%	-5	3%[15.4 µM]
CCCCc1c(O)nc(SCC(=O)Nc2ccc(OC)cc2)n(-c2ccc(C)c(C)c2)c1=O	.	-3.4%	.	-6	.	.	-7%
Cc1cnc2cc([N+](=O)[O-])ccc2n1	5%	1.3%	-2.9	1	7%	1	?
COc1ccc(C2CC(c3ccccc3)=NN2C(=O)COC(=O)COc2ccccc2)cc1 (stereo not given)	20%	.	8.2	-1	-5%	7	5%
